Screens from PubChem.
Autofluor counter – flagged as autofluorescent in microsphere protease counterscreen; AID 624483; compound autofluorescence counterscreen, microsphere flow cytometry; hits give high values; hit rate 3.1% among 360,000; fluorescence intensity (test concentration not listed);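 active means at least 3 SD above the mean of all compounds, about 16000 in these data; inconclusive means too few beads counted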;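 further: 100 nL of 1 mM stock went into each well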
BJeLR viability – BJeLR cell viability loss; BJeLR (HRASV12) viability, CellTiter-Glo ATP luminescence, 48 h; reference of the scale not given here; inhibition, % (concentration not given with the values); hit rate 0.17% among 300,000; AID 1554;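 active means replicate mean above 50%; inconclusive means above 50% but judged a plate artefact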;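 further: 50 nL library stock added to about 25 µL; numbers are from one replicate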
RN4220 kill – S. aureus RN4220 growth inhibition; OD600, 16 h; inhibition, % (no concentration beside the values); hit rate 0.33% among 330,000;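 active means z-score of -3 or lower and OD600 up to 0.18 on both plates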;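 further: plate controls were untreated cells for no effect and reference antibiotic for full effect; stock transfer was 100 nL into about 80 µL; one replicate is shown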
PrP 5UTR inh – suppresses PrP 5' UTR mRNA reporter expression. hit rate 0.35% among 340,000. inhibition, % (concentration not given with the values). cell-based PrP 5' UTR mRNA reporter, plate reader;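 active means every replicate at 50% or more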;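 further: 0 = median of the neutral control wells; tested in H4 reporter cells; numbers are from one replicate; inactives centre near -14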
Mtb hypoxia rep – Mtb hypoxia fluorescent reporter inhibition | M. tuberculosis hypoxia-regulated fluorescent reporter, fluorescence | hit rate 0.1% among 300,000 | fluorescence inhibition, % (concentration not given with the values);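 active means 35 to 45% if threefold the growth effect, above 45% if 1.5-fold the growth effect; inactive means the rest, general growth blockers included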;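 further: wells of about 50 µL received 100 nL stock; 0% = vehicle wells and 100% = reference inhibitor wells; whole bacteria with a GFP reporter of the hypoxia response; strong numbers were not always called active; many hits fall short of the cut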
Sa ugtP lethal – kills S. aureus RN4220 lacking UgtP; growth inhibition, % (no concentration beside the values); hit rate 0.54% among 330,000; S. aureus RN4220 ugtP deletion, OD600 growth, 16 h; some inactives read as strong as hits; AID 1259309;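 active means z-score under -3 and OD600 up to 0.15 on both plates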;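 further: plate controls were untreated wells for no effect and antibiotic for full effect; wells of about 80 µL received 100 nL stock; the first replicate is given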
Mtb hypoxia rep growth – recorded beside Mtb hypoxia rep, whose call it bears; growth inhibition, %; measured here: M. tuberculosis growth (absorbance);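 0% = vehicle and 100% = reference antibiotic; read after six days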
* hit, by the source's call; ? = inconclusive; nt = no result given.

| compound | Sa ugtP lethal | Mtb hypoxia rep | BJeLR viability | PrP 5UTR inh | RN4220 kill | Autofluor counter | Mtb hypoxia rep growth |
| --- | --- | --- | --- | --- | --- | --- | --- |
| Cc1noc(C)c1S(=O)(=O)N(CCc1ccccc1)Cc1ccccc1 | 0.2 | nt | -1.9 | -40.8 | 7.3 | 4998 | nt |
| Cc1nnc(SCC(=O)N2CCN(c3cccc(Cl)c3)CC2)n1C1CC1 | 1.0 | 18.3 | nt | -26.5 | 1.9 | 3450 | 5.2 |
| c1ccc2c(c1)oc1c(Nc3ccc(CN4CCOCC4)cc3)ncnc12 | -19.8 | 0.5 | 0.5 | -72.1 | 1.0 | 3479 | 3.2 |
| Cc1ccc(OCc2ccc(C(=O)O)o2)cc1C | -5.1 | -8.5 | 5.9 | -43.5 | 3.0 | 3908 | -7.3 |
| O=C(NCCc1cnn(-c2ccccc2)c1)c1cc(COc2c(F)cccc2F)on1 | -4.8 | 1.5 | -1.7 | -13.2 | -0.7 | 2059 | 5.5 |
| CNC(=S)N/N=C/c1c(C(=O)OC)cnn1-c1ccc(F)cc1F | nt | nt | 9.2 | -18.1 | nt | 3187 | nt |
| O=C(CSc1ccc(F)cc1)Nc1ccc2c(c1)C(=O)NC2=O | 1.4 | 3.3 | -8.1 | -22.4 | -0.5 | 4428 | 9.8 |
| COc1cccc(-c2cc(C(=O)NC3CCCC3)no2)c1 | -0.5 | 8.4 | 3.4 | -54.0 | 6.2 | 11097 | 6.8 |
| CCCCNC(=O)OC1CC2CCC(=O)N3CCC(C1)C23 (stereo not drawn) | -1.0 | 3.7 | nt | nt | 5.0 | nt | 10.3 |
| CC(=O)c1ccc(NC(=O)CSc2nc3nc(C)cc(C)n3n2)cc1 | 4.5 | nt | 1.8 | -25.2 | 3.2 | 5199 | nt |
| COC(=O)[C@H](CCSC)NC(=O)Nc1ccc(OC)cc1 | -5.4 | 9.4 | -3.9 | -5.7 | -15.5 | 2572 | 6.6 |
| CCOC(=O)c1ccc(NC(=O)c2nc[nH]c2C(=O)NC2CCN(C(=O)OC(C)(C)C)CC2)cc1 | 1.9 | -1.0 | 10.1 | 0.2 | 4.9 | 2842 | -0.2 |
| CCOc1ccc(Br)cc1S(=O)(=O)N1CCSC1 | 9.8 | 10.0 | -3.4 | -0.9 | -1.2 | 3743 | 12.3 |
| CC(=O)NNC(=O)c1cc2sccc2s1 | 12.3 | 18.6 | 11.2 | -16.1 | 3.9 | 6371 | -7.4 |
| C=CCOc1ccccc1/C=N/NC(=O)c1ccc(Cl)cc1Cl | nt | nt | -5.3 | -15.7 | nt | 8184 | nt |
| CCCC(O)(c1ccc(Cl)cc1)C(CN1CCOCC1)c1ccccc1 (stereo not drawn) | 14.2 | 11.1 | 13.1 | -14.9 | 10.3 | 4864 | 8.0 |
| CCOC(=O)N1CCN(C(=O)N2CCOCC2)CC1 | -5.2 | 6.9 | -12.0 | -7.3 | 9.4 | 3628 | 6.7 |
| Cc1ccc(/C=N/NC(=O)c2cccc(NC(=O)c3ccccc3C)c2)o1 | nt | nt | -1.1 | -20.7 | nt | 4115 | nt |
| Cc1ccc(CNC(=O)Nc2ccccc2)c(C)c1 | 3.8 | -1.5 | -3.9 | -22.2 | 4.0 | 4642 | 9.1 |
| NC(=O)N1CCN(C(=O)c2ccco2)CC1 | -7.5 | 6.2 | 3.2 | -5.4 | 7.0 | 2386 | 1.8 |
| COc1ccc(C(=O)NCCc2nnc3ccc(SCC(=O)N4CCCCC4)nn23)cc1 | 5.6 | -5.9 | -3.7 | -20.5 | 3.4 | 5091 | 4.4 |
| Cc1ccc(-n2c(SCC(N)=O)nnc2-c2ccccn2)cc1C | 5.2 | -4.0 | -1.4 | -1.8 | -3.8 | 4690 | -0.4 |
| Fc1cccc(/C=N/Nc2ccc(Cl)nn2)c1 | nt | nt | -4.6 | -40.6 | nt | 2782 | nt |
| CS(=O)(=O)c1cccc(C(=O)OCC(=O)Nc2ccc3c(c2)OCO3)c1 | 3.1 | -8.7 | nt | -13.7 | 3.9 | 2814 | -5.4 |
| Cc1ccc(C)c(NC(=S)NCCN(C2CCCCC2)C2CCCC2)c1 | nt | nt | 0.6 | -26.3 | nt | 5393 | nt |
| Nc1c(C(=O)CSc2nnnn2-c2ccc(O)cc2)c(=O)[nH]c(=O)n1C1CC1 | -3.1 | -5.8 | nt | -95.6 | -3.5 | 6359 | -10.3 |
| Cc1ccc(NC(=O)Cc2c[nH]c3ccccc23)cc1S(=O)(=O)N1CCCCCC1 | -15.2 | 5.2 | -3.8 | -19.5 | 4.1 | 2152 | 2.0 |
| COc1ccccc1N1CCN(C(=O)c2cccc(S(=O)(=O)N3CCCCCC3)c2)CC1 | 6.6 | 3.8 | nt | -7.6 | 4.3 | 8187 | 4.8 |
| COc1ccccc1CN(Cc1nc2ccccc2c(=O)[nH]1)C(=O)Nc1ccccc1C | 5.5 | 15.5 | -9.4 | -20.0 | 12.7 | 9473 | -0.6 |
| O=C(Cn1nc(C(=O)O)c2ccccc2c1=O)Nc1cccc(S(=O)(=O)N2CCCCC2)c1 | 2.5 | -22.0 | nt | -11.4 | 0.9 | 4002 | -10.0 |
| S=c1[nH]nc(COc2ccccc2)n1N=Cc1ccc(Cl)c(Cl)c1 | -4.5 | -4.2 | nt | nt | 5.2 | nt | 5.1 |
| Cc1ccccc1NC(=O)c1ccccc1NC(=O)Cc1cccc2ccccc12 | 8.9 | 0.9 | 0.2 | -8.6 | 0.8 | 1939 | -3.3 |
| CC(C)C(c1nnnn1C1CCCC1)N1CCC(C(N)=O)CC1 (stereo not drawn) | 4.0 | 8.2 | 2.2 | -10.0 | 2.2 | 3601 | 1.0 |
| Cn1cnc(S(=O)(=O)NC2CCN(Cc3c(F)cccc3Cl)CC2)c1 | 3.6 | 2.4 | -2.0 | -10.5 | 1.4 | 6033 | -5.8 |
| Cc1ccc(-c2cc(C(=O)NN=Cc3cccnc3)c3ccccc3n2)cc1C | 15.4 | -3.4 | nt | nt | -2.2 | nt | 6.4 |
| CNP(=S)(NC)OCCOc1ccc(OC)cc1 | 1.9 | nt | -4.7 | -17.8 | 2.7 | 4681 | nt |
| Nc1nccc(-c2nn(-c3ccc(Cl)cc3)ccc2=O)n1 | 12.9 | 10.2 | 5.3 | -7.6 | 3.1 | 5039 | 7.8 |
| CCOC(=O)c1ccccc1NC(=O)COC(=O)CSc1ccccc1 | -5.4 | -1.9 | -5.2 | 2.0 | -4.7 | ? | 3.4 |
| COc1ccc(/C=C2\C(=O)N(c3c(Cl)cc(Cl)cc3Cl)N=C2NC(=O)c2cccc([N+](=O)[O-])c2)cc1 | -0.3 | -6.0 | nt | -8.7 | -1.8 | 2428 | 1.0 |
| CCCCn1c(N)c(N(CCOC)C(=O)C2CCN(S(=O)(=O)c3ccc(Cl)cc3)CC2)c(=O)[nH]c1=O | 1.3 | -7.9 | -1.2 | -11.5 | 7.4 | 5454 | -10.7 |
| CN(C)C(=O)c1cc(C(=O)c2ccc(F)cc2F)c[nH]1 | 1.8 | -0.5 | 10.3 | nt | 5.4 | 3598 | -3.9 |
| CCC1CCCCN1C(=O)c1cc(COc2ccc3ncccc3c2)on1 (stereo not drawn) | 4.9 | 4.2 | 12.4 | -21.5 | 5.3 | 4200 | 12.0 |
| C#Cc1ccc(CN2CCN(CCCc3ccccc3)C(CCO)C2)cc1 (stereo not drawn) | 2.8 | 7.0 | -13.0 | -9.1 | 0.9 | nt | 0.0 |
| Nc1[nH]n2c(=O)cc(-c3ccccc3)nc2c1N=Nc1ccccc1 | 0.2 | nt | -6.7 | -20.9 | 39.0 | 2164 | nt |
| Cc1ccccc1C(=O)Nc1ccc(C(=O)NN=Cc2ccc(O)cc2)cc1 | 4.8 | 3.2 | nt | nt | 1.2 | nt | -3.2 |
| C=CCn1c(SCC(=O)NCc2ccco2)nc2sc3c(c2c1=O)CCCC3 | 6.5 | nt | -9.6 | -25.8 | 0.0 | 2586 | nt |
| COc1ccc(N2C(=S)NC3c4cc(Cl)ccc4OC2(C)C3C(=O)N(C)C)cc1 (stereo not drawn) | 3.9 | -2.5 | -1.6 | -26.7 | 8.5 | 2919 | 10.8 |
| Cc1ccc(S(=O)(=O)CCC(=O)Nc2nnc(-c3cccs3)o2)cc1 | 3.3 | 11.2 | -15.3 | -18.0 | 3.9 | 5087 | 3.4 |
| C=C(C)CSc1nnc2n(Cc3ccccc3)c(=O)c3c4c(sc3n12)CCC4 | 0.6 | nt | -0.5 | -11.5 | 0.0 | 5404 | nt |
| COc1ccc(OC)c(NC2=NC3(CCCC3)N=C(N)N2)c1 | 0.6 | -2.0 | -17.2 | -10.7 | 3.2 | 10735 | 4.3 |
| CC1(C)N=C(SCC(=O)Nc2ccc(Cl)cc2)C(c2ccccc2)=N1 | -13.7 | 3.9 | 1.3 | -5.4 | 3.6 | 4474 | 8.9 |
| O=C(CN1CCCCCC1)Nc1ccc(Cl)cc1F | 5.4 | -4.2 | 9.0 | -2.1 | -3.6 | 3493 | -3.3 |
| CN(C(=O)c1ccc(COc2ccccc2Cl)o1)c1ccccc1 | 5.7 | 8.9 | 7.5 | 17.5 | 6.6 | 3349 | -1.5 |
| COc1ccccc1OCC(=O)N/N=C1\CCCCc2ccccc21 | nt | nt | -6.1 | -22.5 | nt | 4775 | nt |
| CCOC(=O)C1CCCN(C2=NC(=O)/C(=C/c3ccc(OC)c(OC)c3)S2)C1 (stereo not drawn) | 1.4 | 13.3 | -9.9 | -3.0 | 5.2 | 3609 | 2.6 |
| Fc1ccc2nc(C3CCN(Cc4nc(CC5CC5)no4)CC3)[nH]c2c1 | 1.1 | 1.1 | 0.1 | 2.7 | 2.6 | 3939 | 10.8 |
| COc1ccccc1/C=C/C(=O)OCC(=O)N1c2ccccc2CC1C (stereo not drawn) | 8.9 | 0.6 | nt | -3.0 | 3.6 | 6227 | -4.1 |
| CCC(C)(C)NC(=O)C(OC(=O)c1cc2sccc2n1C)c1ccc(OC)cc1 (stereo not drawn) | -6.9 | 13.3 | -0.5 | -8.5 | 5.9 | 9551 | 4.7 |
| Cn1cc(C(Cc2ccccc2)=NO)c2ccccc21 | 16.0 | 6.1 | nt | nt | 1.9 | nt | 5.5 |
| ClC(Cl)(Cl)c1nc2ccccc2n2nncc12 | nt | nt | 47.7 | -5.8 | nt | 6004 | nt |

Other records follow.
| compound | Sa ugtP lethal | Mtb hypoxia rep | BJeLR viability | PrP 5UTR inh | RN4220 kill | Autofluor counter | Mtb hypoxia rep growth |
| --- | --- | --- | --- | --- | --- | --- | --- |
| CCOC(=O)NN=Cc1ccc(C)o1 | 3.1 | -0.9 | nt | nt | 4.9 | nt | -1.1 |
| COc1ccc(-c2noc(-c3ccccc3C(=O)NCc3ccco3)n2)cc1 | -3.0 | nt | -4.6 | -16.0 | 0.7 | 4804 | nt |
| CCC(C)NC(=O)CN1C(=O)c2cccc3cccc1c23 (stereo not drawn) | 3.6 | -3.2 | 3.3 | -10.9 | -3.0 | 3538 | 3.2 |
| CC(C)C(=O)Nc1nnc(-c2ccco2)s1 | 9.8 | -13.4 | -2.4 | nt | 7.4 | 5352 | -3.1 |
| COC(=O)c1ccc(C=NNC(=O)CC(=O)NCc2cccnc2)cc1 | 8.7 | 19.2 | nt | nt | 0.9 | nt | 3.6 |
| COc1ccc(N(CC(=O)Nc2ccc(F)cc2)S(=O)(=O)c2ccccc2[N+](=O)[O-])c(OC)c1 | -11.7 | 16.3 | -3.6 | -17.7 | 2.0 | 2584 | 2.3 |
| O=C(NN=C1CCCCCC1)c1cccnc1 | 10.3 | 14.0 | -6.6 | -17.7 | -0.7 | 6122 | 2.9 |
| Cc1ccc(NC(=O)CCC(=O)N/N=C/c2ccc(O)cc2)cc1 | nt | nt | -5.2 | -33.0 | nt | 4471 | nt |
| CCN(CC)c1ccc(NC2CC(=O)N(CCc3ccc(OC)cc3)C2=O)cc1 (stereo not drawn) | -1.3 | 6.7 | 1.6 | -15.0 | 11.0 | 3991 | 8.0 |
| CC(C)CN1C2CCCC1CC(NC(=O)c1ccc([N+](=O)[O-])cc1)C2 (stereo not drawn) | 0.7 | -10.9 | -5.7 | -11.6 | 3.4 | 4101 | 3.0 |
| COc1ccc2c(c1)OC(O)(C(F)(F)F)CC2=O (stereo not drawn) | -14.2 | 6.3 | -0.2 | -18.6 | -3.9 | 11050 | 7.0 |
| O=C(Nc1ccc(Nc2ccccc2)cc1)c1ccccc1 | -0.6 | -9.1 | 2.4 | nt | -3.6 | nt | 7.8 |
| CN(C)c1ccc(N=Nc2cccc(F)c2)cc1 | 9.5 | 11.5 | -2.5 | -138.8 | -1.6 | 4635 | -6.3 |
